Compound activity (PubChem BioAssay)
Vaccinia pol inh: vaccinia E9 polymerase processive synthesis inhibition; in vitro processive DNA synthesis, absorbance read-out; hits give low values; some inactives read as strong as hits; normalized absorbance, % (test concentration not listed); 46,000 compounds, 0.94% hits;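 active means replicate mean up to 90% and picked by the depositor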;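 further: 100% = median of the test wells of a plate; 100 nL library stock went into each well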
Numbers without * were called inactive. The list is partial; rates above refer to the full screens.

smiles | Vaccinia pol inh
CCOc1ccc(C(O)c2nc3ccccc3n2C)cc1 (stereo not drawn) | 99
FC(F)(F)c1ccc(N=Cc2cccs2)cc1 | 106
COc1ccc(C(=O)NCC#N)cc1 | 100
COc1ccc(C2NN=C3C4CCN(CC4)C32)cc1Br (stereo not drawn) | 98
NC(N)=N/N=C\c1c(Cl)cccc1Cl | 93
O=C(OCc1nc2ccccc2s1)c1cc(Cl)sc1Cl | 98
CCCCC(CC)C(=O)Nc1c2c(nc3c1CCC3)CCCC2 (stereo not drawn) | 100
Cc1ccccc1/C(N)=N\O | 102
CC(Oc1ccccc1)c1ccnn1C(=O)Nc1ccccc1 (stereo not drawn) | 100
CC(C)c1ccc(CNC(=O)CCc2ccccc2)cc1 | 82
CSc1nsc(SCC(=O)N2CCCc3ccccc32)n1 | 95
C=CCN(CC=C)S(=O)(=O)c1ccc(C(=O)Nc2nnc(COC)o2)cc1 | 96
Cc1ccc(NC(=O)c2oc3ccc4c(c3c2C)C(=O)CC(C)(C)O4)cc1 | 79
CCCNC(=O)C1CC(c2ccc(F)cc2)=NO1 (stereo not drawn) | 97
Oc1ccccc1C1Nc2ccccc2-c2nc3ccccc3n21 (stereo not drawn) | 99
CCOC(=O)C(Cc1ccccc1)C(=O)Nc1ccccc1C (stereo not drawn) | 102
OC(CNC1CCCC1)Cn1c2ccccc2c2ccccc21 (stereo not drawn) | 80*
Clc1cc(Cl)c(OCC#CI)cc1Cl | 100
Cc1nn(-c2ccccc2)c(C)c1Sc1n[nH]c(=O)[nH]c1=O | 100
Cc1cc2ccccn2c1C(=O)c1ccccc1 | 103
O=C1CC(NC(=O)c2ccc(Cl)cc2)C(=O)N1 (stereo not drawn) | 101
O=C(NCCO)c1cc[n+](CC(=O)c2cccs2)cc1 | 101
Cc1occc(=O)c1OC(=O)c1ccc(C(C)(C)C)cc1 | 89
Cc1ccc(N/C=C(\C#N)c2nc(-c3cc4ccccc4oc3=O)cs2)cc1F | 100
O=C(CSC1=NCCS1)NC(c1ccccc1)c1ccccc1 | 101
CC(=O)Nc1ccc(-c2nc3ccc(NC(C)=O)cc3s2)cc1 | 100
CC1=NOC(O)(C(F)(F)F)C1 (stereo not drawn) | 102
CN1C(=O)CSc2ccc(NC(=O)N3CCOCC3)cc21 | 103
CN1CCc2nc(SCc3cccc(Cl)c3)c(C#N)cc2C1 | 96
Cc1ccccc1-n1c(O)c(/C=N/c2nccs2)c(=O)[nH]c1=O | 101
CCn1c2ccccc2c2nn(C)c(=N)nc21 | 91
O=C(COC(=O)C1CC1)Nc1cc(Cl)cc(Cl)c1 | 90
CCN(CC)C(=O)CSC1=Nc2ccccc2C2=NC(Cc3c[nH]c4ccccc34)C(=O)N12 (stereo not drawn) | 102
Cc1cccc(C2Nc3ccccc3C(=O)N2CCc2ccccc2)n1 (stereo not drawn) | 94
CCCCC1(CC(=O)N2CCOCC2)C(=O)N(c2ccccc2)N(c2ccccc2)C1=O | 100
O=c1nc2scc(-c3ccccc3)n2c2ccccc12 | 94
Cc1ccc(C(=O)NCCN(C)C)cc1NC1=NC2CS(=O)(=O)CC2S1 (stereo not drawn) | 97
CSc1scc2c1-c1nn(C(=O)c3ccc(Cl)cc3)cc1CC2 | 108
CC(C)CNC(=O)c1cc(-c2ccccc2O)no1 | 99
O=C(Nc1cc(Cl)ccc1C(=O)O)c1ccc(F)cc1 | 95
CCCCn1c(C(=O)OC)cc(=O)c2c(C)n(-c3ccccc3)c(=S)nc21 | 100
CCc1ccc(S(=O)(=O)N2CCOCC2)cc1 | 102
O=C(/C=C/c1ccco1)C1=C(O)c2ccccc2C1=O | 106
CCN=C(Nc1cc(-c2ccccc2)[nH]n1)SC | 83
C[N+](C)(C)CCN1C(=O)CSC1=O | 97
CC1(C)COC(c2ccc(C(C)(C)C)cc2)=N1 | 99
COC(=O)c1sc2cccc(Cl)c2c1Cl | 102
CC1CN(C(=O)c2cccs2)CCN1C(=O)c1cccs1 (stereo not drawn) | 100
Cc1ccc(C)n1-c1cccc(C(=O)O)c1 | 11*
CCSc1ncc(CO)n1C | 92
COc1ccc(/C=C2\CCCC3=C2Nc2ncnn2C3c2ccc(OC)cc2)cc1 (stereo not drawn) | 107
COc1ccc(C2CCCCC2)cc1 | 108
CC1(C)O[C@@H]2CC3C4C[C@H](F)C5=CC(=O)CC[C@]5(C)C4[C@@H](O)C[C@]3(C)[C@]2(C(=O)CO)O1 (stereo partly drawn) | 95
C=CCNC(=O)c1c(N)n(Cc2ccccc2)c2nc3ccccc3nc12 | 100
Nc1c(N2CCOCC2)c2ccccc2oc1=O | 100
Cc1c(C(=O)O)oc2ccc(S(=O)(=O)N3CCCC3)cc12 | 99
COc1cc([C@@H]2c3cc4c(cc3[C@H](O)[C@H]3COC(=O)[C@H]23)OCO4)cc(OC)c1OC | 103
N/N=C1\CCCc2c1[nH]c1ccc(C(F)(F)F)cc21 | 101
COc1ccc(C(=O)OC2=C(c3ccccc3)C(=O)c3ccccc3C2=O)cc1 | 100
CCCNC(=O)C1CCN(c2nn3c(=O)cc(C)nc3s2)CC1 | 98

The list continues:
smiles | Vaccinia pol inh
CCN1C(=O)CC(c2ccccc2)Sc2ccccc21 (stereo not drawn) | 100
Cc1cc(C(=O)Nc2ccccc2)c(C)o1 | 101
CC(=O)Oc1ccccc1C(=O)N1CCN(c2cccc(Cl)c2)CC1 | 98
c1ccc(CSc2ncnc3c2oc2ccccc23)cc1 | 101
CN(C)Cc1c(O)ccc2occ(C(=O)c3cccc(Br)c3)c12 | 100
O=C(CCc1ccccc1)Nc1ccc(C(=O)OC2CCCCC2)cc1 | 99
CC1(C)CC(=O)C2=C(C1)NCN(CCCN1CCOCC1)C2 | 104
O=c1cc(NCc2ccccc2)n(-c2ccccc2)c(=O)n1-c1ccccc1 | 96
N#CCSc1nc(C2CC2)cc(-c2ccc(F)cc2)c1C(N)=O | 100
C=CCNc1nc(SC)nc2ccccc12 | 95
O=C1C2=C(Nc3ccccc3SC2c2ccsc2)c2ccccc21 (stereo not drawn) | 96
Oc1ccc2ccccc2c1C1Nc2ccccc2-n2cccc21 (stereo not drawn) | 88
O=C(OCc1ccc(Br)cc1)C1CCCCN1S(=O)(=O)c1ccc(F)cc1 (stereo not drawn) | 108
OCCN=c1scc(-c2ccc(Br)cc2)n1-c1ccccc1 | 100
CCCc1c(C(=O)N(Cc2ccccc2)Cc2cccs2)cnn1-c1ccccc1 | 100
CCCOc1ccc(OCCSc2nc(N)cc(=O)[nH]2)cc1 | 100
CC(C)OC(=O)C(C)n1cnc2sc(-c3ccccc3)cc2c1=O (stereo not drawn) | 87
CCOC(=O)C1=C(C)NC(=S)NC1c1ccc(-c2ccccc2Cl)o1 (stereo not drawn) | 100
Fc1ccc(NC2=NCCN2)cc1 | 102
Cc1ccc(C=Nc2cccc(Cl)c2)cc1 | 101
O=C(O)c1c2c(nc3ccc(Br)cc13)CCCC2 | 100
CCC(CC)C(=O)NCCc1cc2ccc(OC)cc2[nH]c1=O | 96
COc1ccccc1C1CCN(Cc2cccc3ccccc23)CC1 | 104
CC1CCCN(S(=O)(=O)c2ccc(Cl)cc2)C1 (stereo not drawn) | 100
CN(CC(=O)N1CCc2ccccc21)S(=O)(=O)c1cccc2cccnc12 | 94
Cc1ccsc1CNCC1CCCO1 (stereo not drawn) | 73
CCc1ccc(CN(Cc2cn[nH]c2-c2ccc(OC)cc2)C(=O)Nc2ccc3c(c2)OCCO3)cc1 | 97
CCOC(=O)c1ccccc1NS(=O)(=O)c1ccc2c(c1)OCCO2 | 100
CCCn1c(C(O)c2ccc3c(c2)OCO3)nc2ccccc21 (stereo not drawn) | 106
COc1ccc(O)c(C(=O)c2cnn(-c3ccccc3)c2)c1 | 100
CC1CCCCC1NC1=NCCS1 (stereo not drawn) | 104
N/C(=N\c1nc2ccccc2o1)NC(=O)c1ccccc1NC(=O)c1ccccc1 | 100
S=C(NCCc1ccccc1)NCCc1c[nH]c2ccccc12 | 100
CCOC(=O)c1cc2c(=O)n3ccccc3nc2n(C)c1=NC(=O)/C=C/c1ccccc1 | 104
CC(C)C1Cc2c(sc3[nH]c(=S)n(Cc4ccccc4)c(=O)c23)CO1 (stereo not drawn) | 100
CCOC(=O)CC1NCCc2cc(OCC)c(OCC)cc21 (stereo not drawn) | 96
CN(C)C=Nc1nonc1-c1ccccc1 | 95
O=c1cc(-c2ccccc2)oc2c1Cc1ccccc1-2 | 95
O=C(CCCN1C(=O)/C(=C\c2ccco2)SC1=S)Nc1ccccc1C(F)(F)F | 94
NCCC(=O)N1c2ccccc2Sc2ccccc21 | 98
CCC1CCCCN1C(=O)CC(=O)N1CCCCC1CC (stereo not drawn) | 102
CCNc1c(NS(=O)(=O)c2ccc(C3CCCCC3)cc2)c(=O)oc2ccccc12 | 106
CCc1ccc(OCC(=O)Nc2ncn[nH]2)cc1 | 100
CNC(=O)c1cccc2cccc(Br)c12 | 103
Cc1ccc(C(=O)Cn2c(C)[n+](C)c3ccccc32)cc1 | 97
Cc1ccc(S(=O)(=O)N2CCCC(C(F)(F)F)C2)s1 (stereo not drawn) | 111
COC(=O)C1=C(NC(=O)C23CC4CC(CC(C4)C2)C3)CCS1 | 94
COc1ccc(C(=O)N2CCc3cc(OC)c(OC)cc3C2C)cc1 (stereo not drawn) | 91
O=C(COc1ccccc1O)N1CCCC1 | 101
O=C(Nc1ccc(OCc2ccccc2)cc1)N1CCN(C(=O)C2COc3ccccc3O2)CC1 (stereo not drawn) | 106
COc1ccccc1C1=NOC(C(=O)Nc2ccccc2C(F)(F)F)C1 (stereo not drawn) | 98
CC1CCN(CCCNC(=O)c2cc3c(=O)n(C)c4ccccc4c3n2C)CC1 | 83
CC(C)(C)NCC(O)c1cc(O)cc(O)c1 (stereo not drawn) | 94
Cc1cc(C)c(NC(=O)C(C)Sc2nnnn2-c2ccccc2)c(C)c1 (stereo not drawn) | 99
COc1ccccc1N1C(=O)C2C(c3ccc(F)cc3)NC(Cc3ccccc3)(C(=O)O)C2C1=O (stereo not drawn) | 99
Cc1ccc2c(c1)C(c1ccccc1)N(C(=O)CC(C)C)CC(=O)N2 (stereo not drawn) | 99
O=C(O)c1ccc(S(=O)(=O)N2CCCCC2)cc1 | 88
Cc1c(C(=O)N(C)c2ccccc2)sc2nc3n(c(=O)c12)CCCC3 | 95
O=C1C=CC(=O)c2c(O)cccc21 | 74*
O=C(CCc1ccccc1)Nc1nc2ccc(F)cc2s1 | 101

Some of these compounds in order of length of the SMILES, high to low.
smiles | Vaccinia pol inh
O=C(CCCN1C(=O)/C(=C\c2ccco2)SC1=S)Nc1ccccc1C(F)(F)F | 94
Cc1ccc(S(=O)(=O)N2CCCC(C(F)(F)F)C2)s1 (stereo not drawn) | 111
S=C(NCCc1ccccc1)NCCc1c[nH]c2ccccc12 | 100
O=C(O)c1ccc(S(=O)(=O)N2CCCCC2)cc1 | 88
CCC1CCCCN1C(=O)CC(=O)N1CCCCC1CC (stereo not drawn) | 102
NCCC(=O)N1c2ccccc2Sc2ccccc21 | 98
CC1CCCCC1NC1=NCCS1 (stereo not drawn) | 104

(continued)
smiles | Vaccinia pol inh
Cn1nccc1C(=O)Nc1ccc(Cl)cc1 | 101
CN1CCC(OC(c2ccccc2)c2ccccc2)CC1 | 101
O=C(/C=C/c1ccccc1)Nc1cccnc1Oc1ccc(F)cc1 | 97
OCCNc1nc(-c2ccccc2)c2cc(Cl)ccc2n1 | 99
COc1ccc2[nH]c3c(c2c1)CCNC3C (stereo not drawn) | 100
O=C1CC(c2ccccc2)C(=O)N1c1cc(Cl)cc(Cl)c1 (stereo not drawn) | 107
Cc1oc2ccc(NS(=O)(=O)c3ccccc3)cc2c1C(=O)O | 94
Cc1ccc(S(=O)(=O)NCCC(=O)Oc2cc3oc(=O)c4c(c3cc2Cl)CCCC4)cc1 | 100
O=c1cc(-c2ccccc2)oc2cc(O)cc(O)c12 | 100
CCOc1ccc(CCNC(=O)c2cc3c(C)nc4ccccc4c3o2)cc1OCC | 98
CC(C)NC(=O)c1ccccc1N | 86
O=S(=O)(c1ccc(Cl)cc1)N1CCC(n2cccc2)CC1 | 91
OC(Cn1ccc2ccccc21)Cn1cnc2ccccc21 (stereo not drawn) | 94
COc1ccc(C2CC(=O)n3nc(-c4ccc(F)cc4)nc3S2)cc1OC (stereo not drawn) | 101
Cn1c(C(C#N)C(=O)c2ccc(C(C)(C)C)cc2)nc2ccccc21 (stereo not drawn) | 96
N#CCCN(C(=O)C12CC3CC(CC(Cl)(C3)C1)C2)c1ccccc1 | 94
Cc1ccc(NC(=O)CCc2nnc3ccc(NCCCc4ccccc4)nn23)cc1 | 102
CCN(CC)S(=O)(=O)c1ccc2oc(C(=O)O)c(C)c2c1 | 96
O=C(O)CCC(=O)c1c[nH]c2ccccc12 | 99
Cn1ccnc1C(=O)c1cc(-c2ccco2)nc2ccccc12 | 84
c1ccc([C@H]2CN3CCSC3=N2)cc1 | 99
O=C(O)c1cccc(-n2cccc2C=C2C(=O)c3ccccc3C2=O)c1 | 100

Looked up by compound from above:
smiles | Vaccinia pol inh
CC1CCN(CCCNC(=O)c2cc3c(=O)n(C)c4ccccc4c3n2C)CC1 | 83
NC(N)=N/N=C\c1c(Cl)cccc1Cl | 93
O=C(O)c1ccc(S(=O)(=O)N2CCCCC2)cc1 | 88
c1ccc([C@H]2CN3CCSC3=N2)cc1 | 99
CCCOc1ccc(OCCSc2nc(N)cc(=O)[nH]2)cc1 | 100
C=CCN(CC=C)S(=O)(=O)c1ccc(C(=O)Nc2nnc(COC)o2)cc1 | 96
